Screens from PubChem.
HSV augment – increases HSV replication in cells. 220,000 compounds, 0.005% hits. AID 1956. maximum fold increase. HSV replication augmentation in cells, fold increase;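 active = peak rise of 1.5-fold or more in the series; tested in PC3 cells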;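 note: first round at 10 µM; read as green reporter fluorescence; hits show the peak of a series up to 25 µM; 1 = signal of infected wells without compound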
PKD1 kinase inh – PKD1 (human) kinase inhibition; PKD1 kinase fluorescence polarization assay; inhibition, %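 (about 10 µM by stock and volumes)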; 200,000 compounds, 0.056% hits;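 active = inhibition of 50% or more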;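 note: controls were vehicle for no effect and a reference inhibitor for full effect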
INS promoter inh – TRM-6 insulin promoter activity inhibition. TRM-6 cells (human fetal islet line), insulin promoter-eGFP reporter, imaging; reporter expression induced with tamoxifen. inhibition, % at 2 µM. 130,000 compounds, 0.9% hits;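 active = inhibition above the mean plus 3 SD, with well images judged a real hit on visual review, cut at about 60% in these data, passing the limit was not always enough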
RGS16-Gao HTS – regulators of human RGS16-Galphao interaction; 220,000 compounds, 0.38% hits; bead-based flow cytometry RGS16-Galphao binding, fluorescence; actives lie on both sides; binding response (% of control), % at 10 µM; AID 1441;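 active = below 25% or above 175%, edge rows of some plates excepted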;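 note: Galphao activated by GDP with aluminum fluoride before binding; 100% = wells without compound and 0% = beads without RGS; some results beyond the cut were filed as inactive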
Target sequence (O15492 whole entry, looked up): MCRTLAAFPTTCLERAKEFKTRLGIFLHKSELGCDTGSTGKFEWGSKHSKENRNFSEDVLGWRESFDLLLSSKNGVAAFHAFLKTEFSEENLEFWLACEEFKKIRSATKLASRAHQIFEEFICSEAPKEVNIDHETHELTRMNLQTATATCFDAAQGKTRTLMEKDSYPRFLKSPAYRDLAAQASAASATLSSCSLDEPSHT
Target sequence (P09471 whole entry, looked up): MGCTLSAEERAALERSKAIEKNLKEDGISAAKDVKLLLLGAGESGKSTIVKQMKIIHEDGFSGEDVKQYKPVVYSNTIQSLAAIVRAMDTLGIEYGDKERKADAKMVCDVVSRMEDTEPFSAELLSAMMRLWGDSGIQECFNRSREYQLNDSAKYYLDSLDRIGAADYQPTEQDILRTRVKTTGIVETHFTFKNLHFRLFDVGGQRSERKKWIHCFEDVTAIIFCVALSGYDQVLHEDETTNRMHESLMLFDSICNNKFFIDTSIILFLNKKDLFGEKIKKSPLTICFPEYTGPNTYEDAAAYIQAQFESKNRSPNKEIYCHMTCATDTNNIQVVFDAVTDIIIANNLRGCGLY
GALR2 agonist – agonists of human galanin receptor 2 (GALR2). GALR2-expressing cells, agonist activation read-out. activation, %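 (tested at 5 µM)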. 140,000 compounds, 0.48% hits. AID 803;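 active = above mean plus 3 SD of all compounds, about 5% in these data, not always enough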;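 note: 0% = vehicle buffer wells and 100% = reference agonist at full effect; tested in CHO reporter cells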
Target sequence (O43603 whole entry, looked up): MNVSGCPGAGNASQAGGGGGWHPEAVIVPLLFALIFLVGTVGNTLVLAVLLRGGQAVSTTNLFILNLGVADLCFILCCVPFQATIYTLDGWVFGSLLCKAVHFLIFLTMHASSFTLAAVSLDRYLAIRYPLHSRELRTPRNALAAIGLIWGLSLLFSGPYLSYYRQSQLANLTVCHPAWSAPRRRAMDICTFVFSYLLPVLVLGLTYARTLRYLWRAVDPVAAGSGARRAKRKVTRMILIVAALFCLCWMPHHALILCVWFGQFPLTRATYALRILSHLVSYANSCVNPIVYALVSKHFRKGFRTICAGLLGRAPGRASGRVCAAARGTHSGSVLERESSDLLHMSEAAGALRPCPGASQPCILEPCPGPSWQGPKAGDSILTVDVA
INS promoter inh cell count – also measured in INS promoter inh; calls as there; normalized cell count, %; measured here: cell count, toxicity; reference of the scale not given here;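 cells exposed to compound for 48 h; stained nuclei by imaging scaled within each plate; lower means fewer cells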
HSV augment primary fold – recorded beside HSV augment, whose call it bears; fold increase; compound at 10 µM; measured here: primary screen fold increase 10 uM; tested in PC3 cells;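 GFP signal in the first replicate; 1 = infected wells without compound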
Numbers without * were called inactive.

`O=C(c1ccccc1F)N1CCCC(C(=O)N2CCc3ccccc3C2)C1` (stereo unspecified) gave HSV augment inactive, RGS16-Gao HTS 82 and HSV augment primary fold 0.99.
`O=C(/C=C/c1ccccc1)NCCSCc1ccccc1Cl` gave HSV augment inactive, PKD1 kinase inh -3, INS promoter inh -30, RGS16-Gao HTS 103, GALR2 agonist -2.9, INS promoter inh cell count 59 and HSV augment primary fold 1.
O=C(Cn1nnc(-c2ccc(OCc3ccccc3F)cc2)n1)N1CCOCC1 was read as HSV augment inactive, PKD1 kinase inh -3, INS promoter inh 15, RGS16-Gao HTS 109, GALR2 agonist 0.2, INS promoter inh cell count 158 and HSV augment primary fold 0.9.
For Cc1onc(-c2ccc(Cl)cc2)c1-c1ccnn1S(=O)(=O)c1cccc(C(F)(F)F)c1 the results were HSV augment inactive, RGS16-Gao HTS 98 and HSV augment primary fold 1.
`COc1ccc(CC(=O)NNc2ncnc3c2cnn3-c2ccc(C)cc2)cc1OC` gave HSV augment inactive, PKD1 kinase inh 2, INS promoter inh 3, RGS16-Gao HTS 31, GALR2 agonist -0.2, INS promoter inh cell count 66 and HSV augment primary fold 0.99.
`Cc1ccc(S(=O)(=O)NNC(=O)CCC(=O)Nc2ccccc2)cc1` gave HSV augment inactive, PKD1 kinase inh 5, INS promoter inh -43, RGS16-Gao HTS 79, GALR2 agonist -0.9, INS promoter inh cell count 78 and HSV augment primary fold 0.96.
Screening CC(C)(C)Sc1ccc([N+](=O)[O-])cc1C(=O)Nc1ccncc1 returned HSV augment inactive, RGS16-Gao HTS 101 and HSV augment primary fold 0.96.
For Cc1ccc(C=NCc2ccncc2)c(O)c1 the results were HSV augment inactive, PKD1 kinase inh -1, INS promoter inh -9, RGS16-Gao HTS 97, GALR2 agonist -1.3, INS promoter inh cell count 80 and HSV augment primary fold 0.88.
Cn1c(N)c(C(=O)COC(=O)CCOc2ccc(C(C)(C)C)cc2)c(=O)n(C)c1=O was read as HSV augment inactive, PKD1 kinase inh -1, RGS16-Gao HTS 93 and HSV augment primary fold 0.99.
For O=C(/C=C/c1ccccc1)Nc1ccc2c(c1)OCCO2 the results were HSV augment inactive, PKD1 kinase inh -1, INS promoter inh 17, RGS16-Gao HTS 98, INS promoter inh cell count 115 and HSV augment primary fold 0.96.
CN(C(=O)Cn1cccc1C1=NC(c2ccccc2)CO1)c1ccccc1 (stereo unspecified) was read as HSV augment inactive, PKD1 kinase inh -3, INS promoter inh -55, RGS16-Gao HTS 110, INS promoter inh cell count 118 and HSV augment primary fold 0.91.
Screening COc1ccc(NC2=C(c3ccc(OC)cc3)C(=O)c3ccccc32)cc1 returned HSV augment inactive, PKD1 kinase inh 11, INS promoter inh 9, RGS16-Gao HTS 37, GALR2 agonist -0.8, INS promoter inh cell count 67 and HSV augment primary fold 1.
CC(=O)c1ccc2c3c(ccc(O)c13)CC2 was read as HSV augment inactive, PKD1 kinase inh -9, INS promoter inh 0, RGS16-Gao HTS 101, GALR2 agonist -1.4, INS promoter inh cell count 122 and HSV augment primary fold 0.71.
`CCCNC(=O)c1cccc(NC(=O)C(C)C)c1` gave HSV augment inactive, PKD1 kinase inh -6, INS promoter inh -15, RGS16-Gao HTS 101, INS promoter inh cell count 94 and HSV augment primary fold 0.94.
For CC(C)CNc1ncnc2c1cnn2Cc1ccc(Cl)cc1 the results were HSV augment inactive, RGS16-Gao HTS 102 and HSV augment primary fold 0.99.
For CCOC(=O)CC1=CC(=O)Nc2ccccc2N1 the results were HSV augment inactive, PKD1 kinase inh -3, INS promoter inh -12, RGS16-Gao HTS 98, GALR2 agonist -2.0, INS promoter inh cell count 90 and HSV augment primary fold 0.95.
CC(C)COC(=O)n1ccc(C(=O)N2CCCCC2)n1 was read as HSV augment inactive, PKD1 kinase inh 1, RGS16-Gao HTS 103, GALR2 agonist -1.3 and HSV augment primary fold 0.84.
`COC(=O)C(C)N(C#N)c1nc(C)cc(C)n1` (stereo unspecified) gave HSV augment inactive, PKD1 kinase inh 4, RGS16-Gao HTS 101, GALR2 agonist -3.3 and HSV augment primary fold 1.
Screening Cc1ccccc1C(=O)NNc1ccc([N+](=O)[O-])cc1 returned PKD1 kinase inh -2, INS promoter inh 67, RGS16-Gao HTS 99, GALR2 agonist -0.1 and INS promoter inh cell count 94.
For N#Cc1nc(-c2ccco2)oc1N1CCOCC1 the results were HSV augment inactive, PKD1 kinase inh 8, INS promoter inh -43, RGS16-Gao HTS 109, GALR2 agonist -2.7, INS promoter inh cell count 140 and HSV augment primary fold 1.
`C[C@H](NC(=O)c1nc[nH]c1C(=O)NCCCCCNC(=O)OC(C)(C)C)C(=O)OCc1ccccc1` gave HSV augment inactive, PKD1 kinase inh -8, RGS16-Gao HTS 105 and HSV augment primary fold 0.75.
For CCC(=O)Nc1ccccc1C(=O)OCc1ccc(C(=O)c2ccccc2)cc1 the results were HSV augment inactive, PKD1 kinase inh 13, RGS16-Gao HTS 97, GALR2 agonist -3.3 and HSV augment primary fold 1.1.
For CN(C(=O)COC(=O)/C=C/c1ccc2ccccc2n1)C1CCS(=O)(=O)C1 (stereo unspecified) the results were HSV augment inactive, PKD1 kinase inh 3, RGS16-Gao HTS 103 and HSV augment primary fold 0.74.
`CN(C(=O)c1ccc(OC2CCN(CCc3ccccc3)CC2)cc1)C1CCOCC1` gave HSV augment inactive, PKD1 kinase inh 9, RGS16-Gao HTS 98 and HSV augment primary fold 0.95.
For CN=C(Nc1ccc(Br)cc1)SC1CC(=O)N(c2ccc(OC)cc2)C1=O (stereo unspecified) the results were HSV augment inactive, PKD1 kinase inh -3, INS promoter inh -78, RGS16-Gao HTS 102, INS promoter inh cell count 63 and HSV augment primary fold 0.89.
CCc1nnc(NC(=O)CSc2nnc(-c3ccncc3)n2C)s1 was read as HSV augment inactive, PKD1 kinase inh -2, INS promoter inh 14, RGS16-Gao HTS 104, GALR2 agonist -2.0, INS promoter inh cell count 162 and HSV augment primary fold 0.92.
CCN(CC)CCn1c(-c2ccccc2)nc(=S)c2c1CC(C)(C)OC2 was read as HSV augment inactive, PKD1 kinase inh -13, INS promoter inh -32, RGS16-Gao HTS 99, GALR2 agonist -2.5, INS promoter inh cell count 75 and HSV augment primary fold 0.82.
COc1ccc(C2CC(=O)C3=C(C2)Nc2ccccc2N(C(=O)CCC(=O)O)C3c2ccc(F)cc2)cc1OC (stereo unspecified) was read as HSV augment inactive, RGS16-Gao HTS 87 and HSV augment primary fold 0.97.
`O=C(NC(=S)NNC(=O)c1ccccc1O)c1cccnc1` gave HSV augment inactive, PKD1 kinase inh -1, INS promoter inh -67, RGS16-Gao HTS 99, INS promoter inh cell count 138 and HSV augment primary fold 1.1.
COc1ccc2oc(C(=O)C3CC3)c(N)c2c1 was read as HSV augment inactive, PKD1 kinase inh 8, INS promoter inh 26, RGS16-Gao HTS 105, GALR2 agonist -1.7, INS promoter inh cell count 127 and HSV augment primary fold 0.89.

Two records drawn at random from the list so far:
For O=C(/C=C/c1ccccc1)Nc1ccc2c(c1)OCCO2 the results were HSV augment inactive, PKD1 kinase inh -1, INS promoter inh 17, RGS16-Gao HTS 98, INS promoter inh cell count 115 and HSV augment primary fold 0.96.
CCN(CC)CCn1c(-c2ccccc2)nc(=S)c2c1CC(C)(C)OC2 was read as HSV augment inactive, PKD1 kinase inh -13, INS promoter inh -32, RGS16-Gao HTS 99, GALR2 agonist -2.5, INS promoter inh cell count 75 and HSV augment primary fold 0.82.

Next entries:
Screening O=C(c1cc(F)cc2c1OCOC2)N1CCN(c2ccc(F)cc2)CC1 returned HSV augment inactive, RGS16-Gao HTS 101 and HSV augment primary fold 1.2.
Screening Cc1ccc(OCC(=O)OCc2c(C)noc2C)cc1C returned HSV augment inactive, PKD1 kinase inh -3, INS promoter inh 16, RGS16-Gao HTS 106, GALR2 agonist -1.9, INS promoter inh cell count 59 and HSV augment primary fold 1.1.
For Cc1ccccc1OCC(=O)NNC(=O)CSc1nc(N)cc(N)n1 the results were HSV augment inactive, PKD1 kinase inh -3, RGS16-Gao HTS 98 and HSV augment primary fold 1.1.
CC(=O)c1cc2c(cc1NC(=O)c1ccccc1C)OCO2 was read as HSV augment inactive, PKD1 kinase inh -5, RGS16-Gao HTS 97 and HSV augment primary fold 0.89.
`O=C(NCNC(=O)c1ccccc1)c1ccccc1` gave HSV augment inactive, PKD1 kinase inh -2, INS promoter inh 27, RGS16-Gao HTS 100, GALR2 agonist -1.8, INS promoter inh cell count 92 and HSV augment primary fold 0.94.
COc1cc2nc(CN3CCC(C(O)(c4ccccc4)c4ccccc4)CC3)[nH]c(=O)c2cc1OC was read as HSV augment inactive, PKD1 kinase inh 2, RGS16-Gao HTS 99 and HSV augment primary fold 0.87.
`Cc1cc(N2C(=O)C3C4c5ccccc5C(c5ccccc54)C3C2=O)no1` (stereo unspecified) gave HSV augment inactive, PKD1 kinase inh -6, INS promoter inh -62, RGS16-Gao HTS 115, GALR2 agonist -4.2, INS promoter inh cell count 117 and HSV augment primary fold 0.76.
Screening COc1cccc(-c2nc(CS(=O)(=O)CC(=O)N3CCc4ccccc43)c(C)o2)c1 returned HSV augment inactive, PKD1 kinase inh -4, RGS16-Gao HTS 104, GALR2 agonist -0.9 and HSV augment primary fold 0.75.
Screening CCCC1Nc2ccc(C(=O)O)cc2C2C=CCC12 (stereo unspecified) returned HSV augment inactive, PKD1 kinase inh 10, INS promoter inh -100, RGS16-Gao HTS 71, GALR2 agonist -1.9, INS promoter inh cell count 58 and HSV augment primary fold 1.2.
`O=C(O)COc1ccc2c(-c3ccccc3)cc(=O)oc2c1` gave HSV augment inactive, PKD1 kinase inh 10, GALR2 agonist -1.1 and HSV augment primary fold 0.89.
For COc1ccc(/C=C/C(=O)N(c2ccccn2)C2CCCCC2)cc1OC the results were HSV augment inactive, PKD1 kinase inh 1, RGS16-Gao HTS 102 and HSV augment primary fold 0.69.
Screening O=S(=O)(NCCN1CCOCC1)c1ccc2c(c1)OCCO2 returned HSV augment inactive, PKD1 kinase inh 1, RGS16-Gao HTS 102 and HSV augment primary fold 0.99.
For COc1cccc(OC(=O)CSc2nnc(-c3ccccc3Br)o2)c1 the results were HSV augment inactive, PKD1 kinase inh 2, RGS16-Gao HTS 149, GALR2 agonist -1.1 and HSV augment primary fold 0.94.
Cc1nonc1NC(=O)N1CCCC1 was read as HSV augment inactive, PKD1 kinase inh -6, INS promoter inh 43, RGS16-Gao HTS 94, GALR2 agonist -2.8, INS promoter inh cell count 66 and HSV augment primary fold 0.99.
O=C(CS(=O)(=O)Cc1ccccc1)Nc1ccc(S(=O)(=O)N2CCCCCC2)cc1 was read as HSV augment inactive, PKD1 kinase inh 11, INS promoter inh 31, RGS16-Gao HTS 97, GALR2 agonist -2.8, INS promoter inh cell count 94 and HSV augment primary fold 0.96.

4 structures out of the list, ordered by SMILES length, descending:
COc1cc2nc(CN3CCC(C(O)(c4ccccc4)c4ccccc4)CC3)[nH]c(=O)c2cc1OC was read as HSV augment inactive, PKD1 kinase inh 2, RGS16-Gao HTS 99 and HSV augment primary fold 0.87.
Screening COc1cccc(-c2nc(CS(=O)(=O)CC(=O)N3CCc4ccccc43)c(C)o2)c1 returned HSV augment inactive, PKD1 kinase inh -4, RGS16-Gao HTS 104, GALR2 agonist -0.9 and HSV augment primary fold 0.75.
For Cc1ccccc1OCC(=O)NNC(=O)CSc1nc(N)cc(N)n1 the results were HSV augment inactive, PKD1 kinase inh -3, RGS16-Gao HTS 98 and HSV augment primary fold 1.1.
CC(=O)c1cc2c(cc1NC(=O)c1ccccc1C)OCO2 was read as HSV augment inactive, PKD1 kinase inh -5, RGS16-Gao HTS 97 and HSV augment primary fold 0.89.

(more compounds)
For Cc1cccc(NC(=O)c2oc3ccc(S(=O)(=O)N4CCOCC4)cc3c2C)c1C the results were HSV augment inactive, PKD1 kinase inh -8, INS promoter inh -23, RGS16-Gao HTS 107, GALR2 agonist -2.8, INS promoter inh cell count 154 and HSV augment primary fold 1.1.
`Cc1ccccc1-n1cnc2cc(NCc3cccs3)ccc21` gave HSV augment inactive, PKD1 kinase inh -11, INS promoter inh -31, RGS16-Gao HTS 57, GALR2 agonist -1.9, INS promoter inh cell count 261 and HSV augment primary fold 0.86.
Cc1ccc(S(=O)(=O)Nc2ccc(NC(=O)Nc3ccc(F)cc3F)cc2)cc1 was read as HSV augment inactive, PKD1 kinase inh -5, RGS16-Gao HTS 107, GALR2 agonist -1.1 and HSV augment primary fold 1.
COc1ccc(C(C(=O)NC2CCCCC2)N(C(=O)c2sc(C)nc2C)c2ccc(OC)cc2)cc1 (stereo unspecified) was read as HSV augment inactive, PKD1 kinase inh -16, RGS16-Gao HTS 81, GALR2 agonist -1.6 and HSV augment primary fold 0.99.
Screening COc1ccc(OC)c(C(c2nnnn2CCC(C)C)N2CCN(C(=O)c3ccco3)CC2)c1 (stereo unspecified) returned HSV augment inactive, PKD1 kinase inh -5, RGS16-Gao HTS 92, GALR2 agonist -3.0 and HSV augment primary fold 0.98.

Hits appear at their usual frequency; 1.1% or so of the library scored in one or more.
